Tg IFNy HTS: T. gondii growth inhibition with IFN-gamma, primary screen, cell-based; Toxoplasma gondii growth in IFN-gamma-treated host cells; stronger effect = lower value; reference of the scale not given here; activity change, negative = inhibition, %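 (about 20 µM by stock and volumes)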; 3.8% of 69,000 active; AID 1259416, 2018;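 active = below -70%; inconclusive = fit judged invalid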;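 note: host cells are HeLa cells infected with Toxoplasma gondii; parasite growth read as luciferase light; one replicate is shown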
* hit, by the source's call; ? = inconclusive; & = joins results of further samples. Not all compounds are listed, so the mix of outcomes need not match the whole.

cpd	SMILES	Tg IFNy HTS
1	CCOc1ccc(C2CCCN2C(=O)c2cc(C)nc3c2c(=O)[nH]c(=O)n3C)cc1 (stereo not drawn)	-38.7
2	c1cc(-c2cc(C3CCN(Cc4ccc5c(c4)OCCO5)C3)ccn2)ccn1 (stereo not drawn)	0.6
3	CNC(=O)c1cc(=O)n(CC(=O)Nc2ccc(Br)cc2)c2ccccc12	1.9
4	CCCOCC1CCN(c2nc(-c3cccnc3)nc3c2cnn3C)C1 (stereo not drawn)	-27.7
5	C[C@@H]1CN([C@H](C)CO)C(=O)c2ccccc2-c2ccccc2CO[C@H]1CN(C)C(=O)c1cc(Cl)cc(Cl)c1	-48.8
6	O=C(Cc1cccnc1)N1CC2(C1)[C@H](c1ccccc1)[C@H](CO)N2C(=O)C1CCOCC1	-2.2
7	Cc1oc(-c2ccc(C(=O)NCCC(C)C)cc2)nc1CN1CCc2ccccc21	64.3
8	CCOc1ncccc1-c1noc(CN2CCCCC2C)n1 (stereo not drawn)	74.3
9	CCc1ccc(S(=O)(=O)N2CCC3(CCCN(C)C3=O)C2)cc1 (stereo not drawn)	0.6
10	COc1ccc(C(=O)N2CCC(C(O)c3cccs3)CC2)o1 (stereo not drawn)	-7.7
11	Cc1nc([C@H]2C[C@H]3CCN(Cc4cnn(C)c4)C[C@@H]3O2)sc1C	3.1
12	O=C(c1ccccn1)N1CC2(C1)[C@@H](c1ccccc1)[C@@H](CO)N2C(=O)C1CCCCC1	-29.6
13	CC(C)N1CCC(N2CCN(Cc3ccccn3)CC2CCO)CC1 (stereo not drawn)	-0.6
14	CCc1ccc(-c2cc3c(=O)n(Cc4nc(-c5ccc(OC(C)C)cc5)oc4C)ccn3n2)cc1	32.2
15	COc1cc(-c2cccnc2OC)cc(OC)c1OC	5.7
16	Clc1ccc(NCn2nnc3ccccc32)nc1	9.8
17	C[C@@H]1CN([C@H](C)CO)C(=O)c2ccccc2-c2ccccc2CO[C@@H]1CN(C)C(=O)Nc1cccc(Cl)c1Cl	-21.5
18	COc1ccc(N2CCN(Cc3ncccc3F)C(C)C2)cc1 (stereo not drawn)	-2.0
19	Cc1cccc(NC(=O)Cn2ncc3c(N4CCN(c5ccccn5)CC4)ncnc32)c1	87.5
20	CC(C)(C)c1cc(CN2CCN(c3nccc4ccccc34)CC2)[nH]n1	-2.9
21	Fc1ccc(NC(=S)N2CCN=C2Nc2ccc(F)cc2)cc1	-33.1
22	CCCN(C)C[C@H]1OCCCC[C@@H](C)Oc2ccc(NC(=O)CCCN(C)C)cc2C(=O)N([C@@H](C)CO)C[C@H]1C	-2.6
23	C=CC[C@H]1CC(C)=C[C@H](CC=C)N1Cc1ncccc1C(=O)O	-5.3
24	CC(=O)c1ccc(C(=O)NCc2csc(C)n2)cc1	-2.9
25	Cc1cc(C)c(NC(=O)Cn2c(=O)cc(C(=O)N3CCCCC3)c3ccccc32)c(C)c1	9.7
26	CSc1nnc(C2CCCN2CC(=O)NC(c2ccccc2)c2ccccc2)n1C (stereo not drawn)	-67.6
27	CN1CCC(Cc2noc(C3CCCCO3)n2)CC1 (stereo not drawn)	-7.1
28	O=C(NC(=S)Nc1ccc(S(=O)(=O)N2CCOCC2)cc1)c1cccs1	6.9
29	OC(CCCN1CCN(c2ncc(F)cn2)CC1)c1ccc(F)cc1 (stereo not drawn)	32.7&16.9
30	CCCNC(=O)C[C@H]1CC[C@H]2[C@@H](COc3ccc(NC(=O)CC)cc3C(=O)N2C)O1	11.2
31	Cc1nn(C)c(Cl)c1S(=O)(=O)N1CCCC2(CCN(C)CC2)CC1	14.9
32	CC(C(=O)N1CCC(C(O)(c2ccccc2)c2ccccc2)CC1)n1ccnc1 (stereo not drawn)	-11.3
33	CCn1c2c(ccc1=O)CC(NC(=O)c1ccnnc1)CC2 (stereo not drawn)	17.9
34	CC(=O)Nc1ccc(NC(=O)CN2C(=O)CCc3cc(S(=O)(=O)N4CCCCC4)ccc32)cc1	2.6
35	Cc1ccc(C2(O)CCN(C(=O)C[C@@H]3C[C@@H]4C=C[C@H]3C4)CC2)nc1	3.0
36	CS(=O)(=O)N1Cc2ccccc2C2(CCN(C3CCOCC3)CC2)C1	47.4
37	COCC(=O)Nc1ccc(-c2ccc(-c3ccn[nH]3)cc2)cc1	322.7
38	COc1c(C)cc(-c2cncc(C(N)=O)c2)cc1C	-4.6
39	O=c1nc2sc3ccccc3n2c(=O)n1-c1ccc(Cl)cc1	16.6
40	COc1ccc(C(=O)C2CCCN(Cc3cn[nH]c3-c3ccc(F)cc3)C2)cc1OC (stereo not drawn)	4.8
41	Cc1nc(-c2ccc(F)cc2)sc1-c1ccc(SCc2cccc(C(F)(F)F)c2)nn1	-0.9
42	Cc1oc(-c2ccc(Cl)cc2)nc1CSc1nc2c(=O)[nH]cnc2n1C	-2.3
43	CCOC(=O)c1nc(Nc2ccc(C)cc2Cl)c2ccccc2n1	-36.5
44	C[C@H]1CN([C@@H](C)CO)C(=O)c2cc(NC(=O)C3CCCCC3)ccc2O[C@@H]1CN(C)Cc1ccc2c(c1)OCO2	-26.0
45	COCCC(=O)N1C[C@@H]2c3nc(NCC4CC4)ncc3CS(=O)(=O)[C@H]2C1	-8.3
46	Cc1ccc(NC(=O)C(=O)N(C)Cc2nc(C3CC3)no2)c(C)c1	0.4
47	COc1ccc(NC(=O)c2nnn(Cc3nc(-c4ccccc4)oc3C)c2C)cc1Cl	38.1
48	COC1CCC(N(C(=O)C2CCC(C)CC2)c2cc(C3=CCCCC3)sc2C(=O)O)CC1 (stereo not drawn)	1.6
49	CN(C[C@@H]1COCCO1)S(=O)(=O)Nc1ccc2ccc3ncc(-c4cnn(C)c4)cc3c(=O)c2c1	-43.6
50	C[C@@H]1CN([C@H](C)CO)S(=O)(=O)c2ccc(C#CCC3CCCC3)cc2O[C@H]1CN(C)C(=O)c1cnccn1	?
51	Cn1cc(/C=C/C(=O)N(Cc2ccsc2)C(C)(C)C)cn1	-11.7
52	CCOc1cc(N)c(Cl)cc1C(=O)NCC1CN(Cc2ccc(F)cc2)CCO1 (stereo not drawn)	-33.2
53	Cc1cc(N2CCNC(C)C2)nc(-c2ccccc2)n1 (stereo not drawn)	-8.2
54	CCc1nc(OCC(=O)Nc2c(C)cccc2CC)c2ccccc2n1	-6.7
55	c1ccc(C2CN(c3ncnc4c3CCNC4)CCO2)cc1 (stereo not drawn)	47.1
56	Cc1nc(-c2ccc(Cl)cc2)sc1CCNC(=O)CC(C)(C)C	9.2
57	CCOCC1CN(C(=O)N2CCCC2)Cc2cnn(CC)c21 (stereo not drawn)	-6.9
58	Cc1ccc(NC(=O)c2c(O)c3ccccc3[nH]c2=O)cc1F	335.9
59	COc1ccc(CN2[C@H](CO)[C@@H]3c4ccccc4N(C(=O)NC(C)C)C[C@@H]32)cc1	13.6
60	C[C@@H]1O[C@@H](O[C@H]2[C@H](Oc3cc(O)c4c(c3)O[C@H](c3ccc(O)cc3)CC4=O)O[C@H](CO)[C@@H](O)[C@@H]2O)[C@H](O)[C@H](O)[C@H]1O	-7.0

(list continues)
cpd	SMILES	Tg IFNy HTS
61	CC(C)NC(=O)N[C@@H]1CC[C@H](CC(=O)NCCCN(C)C)O[C@@H]1CO	-28.0
62	Cc1[nH]c(=S)[nH]c(=O)c1Cc1ccccc1	14.5
63	CN(Cc1ccc(-n2cccn2)cc1)Cc1ccc(CO)o1	7.5
64	CCCC(=O)N1CCc2c([nH]c3ccccc23)C12C(=O)Nc1ccc(Br)cc12 (stereo not drawn)	-81.6*
65	Fc1cccc(-c2nnn3c2COC(CNCc2ccsc2)C3)c1 (stereo not drawn)	-17.9
66	Cc1nc(C2COCCN2S(=O)(=O)N(C)C)cs1 (stereo not drawn)	-17.1
67	N#Cc1cccc(-c2ccc(C3[C@H]4CNC[C@@H]3N4S(=O)(=O)Cc3ccccc3)cc2)c1 (stereo partly drawn)	-14.5
68	CCOc1cc(C)cc2oc(=O)cc(-c3ccccc3)c12	-3.3
69	Cc1nc(-c2ccc(F)cc2)sc1-c1ccc(SCc2ccc(Cl)cc2Cl)nn1	-3.5
70	CN(C)CCOCC1CCC2C1OCCN2Cc1cccs1 (stereo not drawn)	-3.8
71	O=C(NCCCc1nc2ccc(F)cc2[nH]1)[C@@H]1C[C@@H]2C=C[C@H]1C2	-3.8
72	CSc1ccc(C(=O)NC(=O)Nc2cc(C)on2)s1	33.8
73	O=C(O)COCC(=O)Nc1nnc(C(F)(F)F)s1	18.5
74	CCn1c(=O)c(-c2nc(-c3ccccc3Br)no2)c(O)c2ccccc21	-30.0
75	O=C(CSCc1ccccc1Cl)NCCn1cccn1	74.4
76	C[C@H]1CN([C@@H](C)CO)S(=O)(=O)c2ccc(C#CC3(O)CCCC3)cc2O[C@@H]1CN(C)C(=O)Nc1cccc(F)c1	-69.9
77	O=C(CCC1N=C2c3ccccc3N=C(SCc3ccc(F)cc3)N2C1=O)NCCc1ccccc1 (stereo not drawn)	-8.1
78	CCOC(=O)n1c(=O)oc2ccccc21	52.6&33.4
79	O=C(CCN1Cc2ccccc2C1=O)NCc1cnn2ccccc12	-3.9
80	C[C@@H](O)C#Cc1ccc([C@@H]2[C@@H](CO)N3CCCCN(C(=O)c4ccc5c(c4)OCO5)C[C@H]23)cc1	0.4
81	CCCn1ccnc1CN1CCN(Cc2ccc(Cl)cc2)CC1	-4.1
82	O=C(CCc1ccc(=O)[nH]n1)N1CCCC(c2ccn[nH]2)C1 (stereo not drawn)	82.4
83	Cn1ccc2cc(S(=O)(=O)N3CCCC(C(=O)N4CCN(c5ncccn5)CC4)C3)ccc21 (stereo not drawn)	12.4
84	O=S(=O)(NC[C@H]1[C@H](c2ccccc2)[C@@H](CO)N1CC1CC1)c1ccccc1	-8.2
85	COc1ccc2cc(C3CN(S(=O)(=O)c4cn(C)c(C)n4)CCO3)ccc2c1 (stereo not drawn)	-6.7
86	O=C(Cn1c(=O)cc(-c2nc(C3CC3)no2)c2ccccc21)NC1CCCCC1	-8.2
87	Brc1ccc(-c2nnc3ccc4ccccc4n23)cc1	-12.0
88	CN1CCNC(=O)C12CCN(Cc1ccccc1OCc1ccccc1)CC2	-3.9
89	C[C@H](CO)N1C[C@H](C)[C@H](CN(C)C)Oc2ccc(NS(C)(=O)=O)cc2C1=O	-53.8
90	C[C@@H]1CC[C@@]2(OC1)O[C@H]1C[C@H]3[C@@H]4CC=C5C[C@@H](O)CC[C@]5(C)[C@H]4CC[C@]3(C)[C@H]1[C@@H]2C	15.9

Six successive entries already listed, quoted:
cpd	SMILES	Tg IFNy HTS
82	O=C(CCc1ccc(=O)[nH]n1)N1CCCC(c2ccn[nH]2)C1 (stereo not drawn)	82.4
83	Cn1ccc2cc(S(=O)(=O)N3CCCC(C(=O)N4CCN(c5ncccn5)CC4)C3)ccc21 (stereo not drawn)	12.4
84	O=S(=O)(NC[C@H]1[C@H](c2ccccc2)[C@@H](CO)N1CC1CC1)c1ccccc1	-8.2
85	COc1ccc2cc(C3CN(S(=O)(=O)c4cn(C)c(C)n4)CCO3)ccc2c1 (stereo not drawn)	-6.7
86	O=C(Cn1c(=O)cc(-c2nc(C3CC3)no2)c2ccccc21)NC1CCCCC1	-8.2
87	Brc1ccc(-c2nnc3ccc4ccccc4n23)cc1	-12.0

Next section
cpd	SMILES	Tg IFNy HTS
91	Cc1ccc(C(=O)NCC2(CO)CCOCC2)cc1NC(=O)C1CCCC1	-45.4
92	CC(=O)N1CC[C@H]2CN(Cc3ccccc3)S(=O)(=O)[C@@H]2CC1	0.6
93	Cc1cccc(-n2cc(CN(C)C(=O)C(=O)c3ccco3)cn2)c1	18.0
94	CCNc1ncc(C(=O)N2CCC(Cc3nn(C)c(=O)n3CC)CC2)cn1	3.8
95	NC(=O)N1CCn2cc(CNC(=O)C3CCC3)nc2C1	-3.5
96	CCCNC(=O)C1CC2(CO1)c1ccccc1CN2Cc1cccc(OC)c1 (stereo not drawn)	9.3
97	CO[C@H]1CCN(C(=O)c2cnoc2)[C@H]2CN(Cc3cccnc3)C[C@@H]12	-27.9
98	CC(=O)N[C@H]1c2ccccc2[C@H]2CN(C(=O)c3cnccn3)C[C@H]21	-0.9
99	Cc1ccc(F)cc1NC(=O)c1nnn(Cc2nc(-c3ccc(OC(C)C)cc3)oc2C)c1C	149.7
100	CCC(=O)c1ccc(OCc2ccc(C(=O)OC)cc2)cc1	115.9
101	COc1ccccc1-c1nc(Cn2nnc(C(=O)Nc3cccc(C(F)(F)F)c3)c2C)c(C)o1	302.3
102	CC#CCOC(=O)C1=CCCN(C)C1	-5.0&8.2
103	COc1ccccc1CN1[C@H](CO)[C@@H]2c3ccccc3N(C(=O)c3cccnc3)C[C@@H]21	7.3
104	CCSc1nc(CC(=O)N2CCCCC2C(=O)O)cs1 (stereo not drawn)	5.2
105	Cc1ccc(-c2nnc(CNC(=O)c3ccccc3)o2)cn1	-39.2
106	S=C(Nc1ccccc1)Nc1nc2ccccc2s1	-40.6
107	Cc1cc(C(=O)N2CCCC3(CC2)CN(C)C(=O)O3)c2c(C)nn(C)c2n1 (stereo not drawn)	-3.5
108	O=C1NC2(CCN(Cc3ccc(F)cc3)CC2)CC1c1ccncc1 (stereo not drawn)	-25.2
109	CC(=O)N1[C@@H](CO)[C@@H]2c3ccccc3N(S(=O)(=O)c3ccccc3C)C[C@@H]21	-3.1
110	O=C(c1ccc[nH]1)N1CCOC(CC(c2ccccc2)c2ccccc2)C1 (stereo not drawn)	-22.2
111	C=CCn1c(Sc2ncnc3c2sc(=S)n3CC=C)nnc1-c1ccccc1	-27.4
112	COc1ccc(-c2nnc(-c3nc(NCCc4ccc(C)cc4)c4ccccc4n3)o2)cc1	439.9
113	CCOCC(=O)N1CCN(Cc2csc(C)n2)c2ncccc2C1	2.5
114	O=C(COc1ccccc1)N1N=C(C(F)(F)F)CC1(O)c1ccc(Cl)cc1 (stereo not drawn)	-21.9
115	COc1ccc(S(=O)(=O)N2C[C@@H]3OCCN(Cc4cccc(C)n4)[C@H]3C2)cc1	1.4
